Screening data as filed in PubChem BioAssay.
PV pol inh – poliovirus RNA polymerase inhibition; % elongation, % (compound at 16.7 µg/mL); poliovirus polymerase elongation, fluorescence polarization; active compounds read low; actives 0.66% (n = 150,000); AID 588519; in the data active means % elongation below about 90%; further: some results filed as inactive read as strong as hits
Target sequence (P03300 1749-2209 limits assumed): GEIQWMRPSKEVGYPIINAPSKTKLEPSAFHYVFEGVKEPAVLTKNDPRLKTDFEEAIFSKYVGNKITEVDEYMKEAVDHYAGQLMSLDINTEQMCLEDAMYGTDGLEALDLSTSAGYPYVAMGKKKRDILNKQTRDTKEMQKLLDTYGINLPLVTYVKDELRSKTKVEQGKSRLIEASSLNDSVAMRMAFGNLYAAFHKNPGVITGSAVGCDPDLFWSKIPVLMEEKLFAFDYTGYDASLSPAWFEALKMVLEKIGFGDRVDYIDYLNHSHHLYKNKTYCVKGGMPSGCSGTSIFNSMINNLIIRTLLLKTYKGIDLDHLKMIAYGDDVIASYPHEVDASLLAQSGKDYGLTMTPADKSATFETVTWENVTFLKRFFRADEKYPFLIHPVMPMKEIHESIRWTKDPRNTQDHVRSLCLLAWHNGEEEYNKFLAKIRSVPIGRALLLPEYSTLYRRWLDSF
PV pol inh intensity – recorded beside PV pol inh, whose call it bears; % elongation; measured here: total intensity read-out; formula for this scale not given here;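 total fluorescence in place of polarization; lower means less elongation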
Active calls of the source: *. Only part of the results is shown. The share of hits here may be higher or lower than overall.

SMILES | PV pol inh | PV pol inh intensity
O=C(NCc1ccccc1Br)c1ccc2c(c1)nc1n2CCOC1 | 113.0 | 109.0
c1ccc2c(c1)ncc1nncn12 | 106.0 | 109.0
O=C(Nc1ccccc1Cl)c1ccc(F)c(S(=O)(=O)NCc2ccc(Cl)c(Cl)c2)c1 | 108.0 | 101.0
Cc1ccc(CNC(=O)c2c3c(nc4ccccc24)C(=O)N(C2CCCCC2)C3)cc1 | 101.0 | 108.0
O=C(CNC(=O)c1ccc(Cl)cc1)OCc1cc(=O)n2nc(C3CC3)sc2n1 | 102.0 | 107.0
Cc1ccc(C(=O)c2c(N)c(C(=O)Nc3ccccc3Cl)c3ccccn23)cc1 | 103.0 | 105.0
Cc1c(C(=O)NCc2ccccc2Cl)sc2nc[nH]c(=O)c12 | 105.0 | 108.0
Cc1ccc(CN(Cc2ccco2)C(=O)c2ccccc2Cl)o1 | 111.0 | 109.0
COc1ccccc1CNC(=O)C1CCCN(c2nnc(-n3c(C)ccc3C)s2)C1 (configuration not stated) | 101.0 | 105.0
COc1ccc(C(=O)c2sc(Nc3cc(Cl)ccc3C)nc2N)cc1OC | 114.0 | 99.0
CCOc1ccccc1NC(=O)C1CCN(S(=O)(=O)c2cc(Br)cc3c2N(C(C)=O)CC3)CC1 | 105.0 | 107.0
Cc1cccc(N2CCN(C(=O)CCNS(=O)(=O)c3ccc4c(c3)CCN4C(=O)C3CC3)CC2)c1C | 102.0 | 108.0
COc1ccc(CCNC(=O)c2ccc(CSCc3ccc(C)cc3)o2)cc1OC | 107.0 | 105.0
Cc1cccc(-c2nnn3c2nc(NCCc2ccc(S(N)(=O)=O)cc2)c2cc(Cl)ccc23)c1 | 105.0 | 112.0
CCn1c(=O)c2cc(C(=O)N(CC(C)C)CC(C)C)sc2c2ccccc21 | 99.0 | 103.0
CCc1ccc(OCc2nc(-c3ccc(-n4cccc4)cc3)no2)cc1 | 107.0 | 109.0
COc1cccc(-n2c(SCC(=O)Nc3nnc(C)s3)nc3c([nH]c4ccccc43)c2=O)c1 | 109.0 | 117.0
CNC(=O)c1ccc(NC(=O)COc2ccc(-c3nn(C)c(=O)c4ccccc34)cc2)cc1 | 104.0 | 109.0
COc1ccc(-c2onc(C)c2C)cc1S(=O)(=O)NCC1CCN(Cc2cccc(F)c2)CC1 | 109.0 | 109.0
CCOc1ccc(CNC(=O)C(C)n2ncn3cccc3c2=O)cc1 (configuration not stated) | 112.0 | 98.0
N#C/C(=C\c1ccc(-c2ccc(F)cc2F)o1)c1nc2ccccc2[nH]1 | 84.0 | 230.0
COc1ccc2c(c1)cc1c(=O)n(CC(=O)NCCCc3ccccc3)nc(C)n12 | 106.0 | 108.0
COc1ccc(-c2onc(C)c2C)cc1S(=O)(=O)N(C)Cc1ccco1 | 110.0 | 109.0
COc1ccc(C(=O)/C=C/c2cn(CC(O)CN3CCc4ccccc43)c3ccccc23)cc1 (configuration not stated) | 105.0 | 113.0
Cc1cccc(CN2CCC(CNC(=O)c3c(C)oc4ncnc(N5CCCCC5)c34)CC2)c1 | 115.0 | 112.0
COc1ccccc1N1CCN(C(=O)Cn2c(=O)nc(-c3ccccc3)c3cc(Cl)ccc32)CC1 | 103.0 | 108.0
COc1ccccc1CNC(=O)C(=O)NCC(c1cccs1)S(=O)(=O)c1cccs1 (configuration not stated) | 104.0 | 103.0
CCOC(=O)c1c(C)[nH]c(C)c1S(=O)(=O)N(C)CC(=O)Nc1cccc(Cl)c1C | 106.0 | 107.0
CCCOc1ccc(CNC(=O)c2[nH]c3cc(OC)ccc3c2Sc2ccccc2)cc1 | 109.0 | 107.0
Cc1ccc(-n2c(CCC(=O)O)ccc2-c2cccs2)cc1Cl | 114.0 | 113.0
CCOc1ccc(C(=O)Nc2c(C(=O)Nc3ccccc3OC)oc3ccccc23)cc1OCC | 105.0 | 98.0
COc1ccc(C(=O)NNc2ncnc3c2cnn3-c2ccc(C)c(Cl)c2)cc1 | 104.0 | 110.0
CC(C)C12CN3CC(C(C)C)(CN(C1)C3c1ccc(OCc3ccccc3)cc1)C2=O (configuration not stated) | 106.0 | 110.0
CCOc1ccccc1NC(=O)c1c(NCc2cccs2)sc2c1CCCCC2 | 105.0 | 111.0
Cc1nn(CC(=O)Nc2cc(F)ccc2F)c(=O)c2cccn12 | 112.0 | 117.0
COc1ccc(CNC(=O)Cc2c(C)c3cc4c(C)coc4cc3oc2=O)cc1OC | 109.0 | 114.0
CN1CCN(CCCNC(=O)Cn2c(-c3cccs3)cc3cc(Cl)ccc32)CC1 | 110.0 | 111.0
Cc1cn2c(=O)cc(COC(=O)c3ccc(NC(=O)c4ccc(F)cc4)cc3)nc2s1 | 108.0 | 109.0
Nc1c(C(=O)Nc2ccc(OC(F)(F)F)cc2)sc2nc(-c3ccncc3)ccc12 | 126.0 | 170.0
Cc1cccc(-n2nc(C)c(C(=O)Nc3cc(C)ccc3C)c2-n2cccc2)c1 | 103.0 | 105.0
Cc1ccc(OCC(=O)Nc2ccc(Cl)c(-c3nc4ncccc4o3)c2)cc1C | 108.0 | 114.0
COc1ccc(Cc2nnc(C(=O)NCCCN3CCN(c4ccccc4F)CC3)o2)cc1OC | 98.0 | 98.0
O=C(COc1ccccc1)Nc1nnc(S(=O)(=O)N2CCCC2)s1 | 109.0 | 117.0
COc1cccc(C(=O)Nc2nc3nc(C)c(C)c(=O)n3[nH]2)c1 | 99.0 | 96.0
COc1cccc(NC(=O)N2CCN3CCCCC3C2)c1 (configuration not stated) | 101.0 | 92.0
O=C(CCCn1ccc2cc(S(=O)(=O)N3CCCC3)ccc21)NCc1ccc(Cl)cc1 | 110.0 | 113.0
Cc1ccc(-c2nn(CC(=O)NC3CCCC3)c3c2cnc2ccc(F)cc23)cc1C | 106.0 | 112.0
COc1ccc2c(c1)CCc1c(C(=O)Nc3cc(C)ccc3O)noc1-2 | 101.0 | 107.0
Cc1ccc(C)c(N2CCN(S(=O)(=O)c3c(C(=O)N4CCC(C)CC4)c(C)n(C)c3C)CC2)c1 | 112.0 | 118.0
COc1ccc2oc(=O)cc(CN3CCN(c4ccccc4OC)CC3)c2c1 | 110.0 | 113.0
O=C(Nc1ccc(-c2nc3ccccc3o2)c(O)c1)c1cc(Cl)ccc1Cl | 101.0 | 107.0
CCc1cccc(NC(=O)CN(c2ccc(C)cc2)S(=O)(=O)c2cccs2)c1 | 109.0 | 107.0
CC(C)Oc1ccc(C(=O)N2CCC(c3nc4ccccc4o3)CC2)cc1 | 109.0 | 99.0
CCOc1ccc(CN2C(=O)c3ccccc3Sc3ccc(C(=O)O)cc32)cc1 | 106.0 | 106.0
Cc1ccc(C2c3c(-c4cc(C)ccc4O)n[nH]c3C(=O)N2Cc2ccco2)cc1 (configuration not stated) | 100.0 | 89.0
CCCc1nn2c(=O)cc(COC(=O)c3ccc4c(c3)OCO4)nc2s1 | 103.0 | 107.0
CCc1ccc(NC(=O)NCCc2c(C)nn(C)c2C)cc1 | 113.0 | 111.0
Cc1cccc(NC(=O)CSc2nnc(CNC(=O)c3c(F)cccc3Cl)o2)c1C | 115.0 | 116.0
CCOc1cc(-c2ccc(OC(=O)c3ccccc3Cl)c(OC)c2)cc(=O)c2c(C)oc(C)c12 | 108.0 | 115.0
Cc1nc(SC(C)C(=O)Nc2ccccc2Cl)cc(-c2ccccc2)n1 (configuration not stated) | 107.0 | 107.0
Remaining list, next part.
SMILES | PV pol inh | PV pol inh intensity
COc1ccccc1CNC(=O)c1c[nH]c2ccc(S(=O)(=O)Nc3cc(C)cc(C)c3)cc2c1=O | 99.0 | 108.0
COc1cccc(NC(=O)C2CCCN(S(=O)(=O)c3ccc4[nH]c(=O)ccc4c3)C2)c1 (configuration not stated) | 103.0 | 97.0
CC(C)c1ccc(NC(=O)CCS(=O)(=O)c2ccc3c(c2)CC(=O)N3C)cc1 | 111.0 | 107.0
COC(=O)c1cccnc1-n1c(=O)c2cccnc2n(CC(=O)Nc2ccc(C)cc2C)c1=O | 104.0 | 109.0
O=C(COc1ccc(Cl)cc1)Nc1ccc(C(=O)OCc2cc(=O)n3ccsc3n2)cc1 | 98.0 | 100.0
CSCCC(NS(=O)(=O)c1cccs1)C(=O)Nc1ccc(C)c(Cl)c1 (configuration not stated) | 114.0 | 113.0
CCCOc1ccc(C(=O)Nc2cc(-c3nc4ccccc4[nH]3)ccc2C)cc1 | 104.0 | 111.0
O=C(Nc1ccc(Cl)cc1)c1cnn2c1NC(c1ccccc1)=CC2c1ccccc1 (configuration not stated) | 107.0 | 143.0
COc1cc([C@@H]2Nc3c(F)cccc3[C@@H]3C=CC[C@@H]32)cc(Br)c1OC | 113.0 | 114.0
CCCn1c2ccccc2c2cnn(CC(=O)NCCCN3CCCCC3CC)c(=O)c21 (configuration not stated) | 96.0 | 102.0
CC1CCN(S(=O)(=O)c2ccc3c(c2)N(CC(=O)NCCCN2CCCCC2C)C(=O)CS3)CC1 (configuration not stated) | 109.0 | 112.0
COc1ccc(NC(=O)Cn2ncc3c4ccccc4n(Cc4ccccc4)c3c2=O)cc1OC | 111.0 | 113.0
COc1ccccc1Cc1nc2ccccc2nc1SCC(=O)N1CCCCC1 | 104.0 | 105.0
COC(=O)c1ccc(Cl)cc1NC(=O)N1CCC(CN2CCCC2)CC1 | 113.0 | 116.0
Cc1ccc2[nH]c(=O)c(CN(C(=O)c3cccc(Cl)c3)C(C)(C)C)cc2c1 | 117.0 | 112.0
CCOc1cccc(C2c3[nH]c4ccccc4c3CCN2C(=O)CSc2ccccc2)c1 (configuration not stated) | 113.0 | 115.0
CCOc1ccc(C(=O)c2cn(CC(=O)Nc3ccc(Cl)cc3)c3cc4c(cc3c2=O)OCCO4)cc1 | 107.0 | 107.0
COc1cc2c(C(=O)N3CCN(c4cccc(Cl)c4)CC3)cn(C)c(=O)c2cc1OC | 106.0 | 108.0
COc1ccc(CNC(=O)CCc2nnc3n(CC(C)C)c(=O)c4ccccc4n23)cc1 | 104.0 | 105.0
CCCOc1cccc(C(=O)Nc2cccc(NC(=O)c3ccc(Cl)cc3Cl)c2)c1 | 104.0 | 114.0
COC(=O)c1ccccc1NC(=O)c1ccc(COc2ccccc2Cl)o1 | 104.0 | 108.0
COC(=O)C1CCN(S(=O)(=O)c2ccc(N3CCCCS3(=O)=O)cc2)CC1 | 102.0 | 107.0
COc1ccc(CN2C(=O)N(c3cccc(C)c3)C(=O)C2CC(=O)Nc2ccc(F)cc2)cc1OC (configuration not stated) | 102.0 | 104.0
CCc1ccc(NC(=O)Cn2nnc(C(=O)Nc3cc(C)ccc3OC)c2N)cc1 | 106.0 | 114.0
CC1CCN(c2nnc(-n3cccc3CNc3cccc(F)c3)s2)CC1 | 99.0 | 101.0
Cc1ccc(C)c(OC(=O)CSc2nnc(CNC(=O)c3ccccc3)o2)c1 | 100.0 | 87.0
COCCCNC(=O)C1CCN(c2nc3ccc(C)cc3[nH]2)CC1 | 109.0 | 110.0
COc1ccc(OC)c(C(=O)CN2C(=O)N(c3cc(C)cc(C)c3)S(=O)(=O)c3ccccc32)c1 | 107.0 | 110.0
COc1ccc(CC(=O)NCc2ccc3c(c2)CCN3C(=O)c2ccc(Cl)cc2)cc1 | 106.0 | 110.0
COc1ccc(CCNC(=O)c2cnc3sc(N4CCCCCC4)nn3c2=O)cc1 | 107.0 | 110.0
Cc1ccccc1NC(=O)CCC(=O)N1CC(C)Sc2ccccc21 (configuration not stated) | 110.0 | 113.0
O=C(Cn1ncc2c3ccccc3n(Cc3ccc(F)cc3)c2c1=O)NC1CCCCCC1 | 106.0 | 107.0
COc1ccccc1CNC(=O)c1cc2sccc2n1Cc1ccc(Cl)cc1 | 106.0 | 108.0
CC(C)(CC(=O)OCC(=O)Nc1ccc(F)c(Cl)c1)CC1=NS(=O)(=O)c2ccccc2N1 | 106.0 | 107.0
CCOC(=O)c1sc2ncn(CC(=O)Nc3ccc(C)cc3C)c(=O)c2c1C | 107.0 | 109.0
Cc1cc(=O)n2c(C(=O)Nc3ccc(C)c(C)c3)c(C(=O)Nc3ccccc3)sc2n1 | 107.0 | 115.0
O=C(Nc1c(C(=O)N2CCN(c3ccccc3)CC2)oc2ccccc12)c1ccco1 | 101.0 | 107.0
Cc1cccc(-n2ncc3c(Nc4c(C)cc(C)cc4C)ncnc32)c1 | 102.0 | 105.0
CCN1CCSc2ccc(C(=O)NCc3ccccc3Br)cc21 | 107.0 | 107.0
COc1ccccc1Cc1nc2ccccc2nc1SCC(=O)N(C)c1ccc(F)cc1 | 107.0 | 113.0
